fixLJ activator: activators of Burkholderia fixLJ two-component system, primary screen, B. multivorans, GFP reporter | hit rate 0.3% among 29,000 | AID 1918990, 2023 | B. multivorans fixK-promoter GFP reporter, 18 h; active compounds read high | z-score (concentration not given with the values);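 active = replicate mean overnight rise in green fluorescent reporter signal, 3 or more SD over negative controls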;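 also: score is relative to vehicle wells of the plate; 300 nL library stock went into each well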
Starred values were filed as active, the others as inactive; & = joins results of further samples. The list is partial; the hit share may differ from the screen's.

Preview:
SMILES	fixLJ activator
COc1ccc2oc(-c3ccc(C)c(NC(=O)CSc4ccc(Cl)cc4)c3)nc2c1	-1.49
Cc1nc2c3ccccc3nc(NNC(=O)CCC(=O)N3CCN(c4cccc(C(F)(F)F)c4)CC3)n2n1	-1.35
COc1ccc(N2CCN(Cc3nc4c(c(=O)[nH]c(=O)n4C)n3Cc3ccccc3)CC2)cc1	1.18
NS(=O)(=O)CC1CCN(C(=O)Cn2ccc3ccccc32)C1 (stereo not given)	-0.28

This part in full, repeating the preview:
SMILES	fixLJ activator
COc1ccc2oc(-c3ccc(C)c(NC(=O)CSc4ccc(Cl)cc4)c3)nc2c1	-1.49
Cc1nc2c3ccccc3nc(NNC(=O)CCC(=O)N3CCN(c4cccc(C(F)(F)F)c4)CC3)n2n1	-1.35
COc1ccc(N2CCN(Cc3nc4c(c(=O)[nH]c(=O)n4C)n3Cc3ccccc3)CC2)cc1	1.18
NS(=O)(=O)CC1CCN(C(=O)Cn2ccc3ccccc32)C1 (stereo not given)	-0.28
COc1ccccc1NC(=O)CCn1nc(-c2ccccc2OC)c2c(C)cc(C)nc21	-0.33
Cc1cc(=O)n2c(C(=O)Nc3ccc(C)c(Cl)c3)c(C(=O)Nc3ccccc3)sc2n1	-1.18
CC(=O)c1cccc(NC(=O)C2CCCN(C(=O)c3cnn(-c4ccccc4)c3-n3cccc3)C2)c1 (stereo not given)	-0.58
COc1ccc(OC)c(NC(=O)C2Cc3ccccc3CN2S(=O)(=O)c2ccc(F)cc2)c1 (stereo not given)	1.04
CCn1cc(C(=O)N2CCN(c3ccccc3)CC2)c(=O)c2cc(S(=O)(=O)N(C)C3CCCCC3)ccc21	-1.24
Cc1ccc(C2C=C(c3ccc(Cl)cc3)Nc3nc(NS(=O)(=O)c4ccccc4)nn32)cc1 (stereo not given)	1.25
CC(C)Cc1nc(CCC2CCOC2=O)n(-c2ccc(F)cc2)n1 (stereo not given)	-2.42
Cc1nc2ccc(S(=O)(=O)NC(C(=O)N3CCN(c4ccc(Cl)cc4)CC3)C(C)C)cc2s1 (stereo not given)	-2.23
COC(=O)c1cccc(CN2C(=O)SC(Nc3ccc(Br)cc3)C2=O)c1 (stereo not given)	-1.74
CCc1nccn1CCNC(=O)C(c1ccccc1)n1cnnn1 (stereo not given)	-0.11
Cc1ccc2nc(-c3ccccc3O)c(Nc3ccccc3C)n2c1	0.16
Cn1c(C(=O)NCc2ccccc2F)cc2oc3ccccc3c21	-2.36
O=C(CSc1nc2c(cnn2-c2ccc(F)cc2)c(=O)[nH]1)Nc1ccccc1C(F)(F)F	0.42
CC(=O)c1c(C)oc2c1cc(NS(=O)(=O)c1ccc(C(C)(C)C)cc1)c1ccccc12	0.79
CCc1ccc2occ(CC(=O)Nc3c(C(=O)c4ccccc4)oc4ccccc34)c2c1	-0.32
CC(=O)Nc1ccc(NC(=O)CSc2nc3ccccc3nc2N2CCC(C)CC2)cc1	-1.15
CCOC(=O)c1c(NC(=O)COc2ccc(C)cc2C(C)(C)C)sc2c1CCC(C)C2 (stereo not given)	-0.87
COc1ccc(CCNc2nc3c(-c4cccc(C)c4)nnn3c3ccccc23)cc1OC	-0.41
COc1cc(-c2cc(NC(C)C)ncn2)cc(OC)c1OC	0.05
O=C(CSc1cn(CCNC(=O)c2ccccc2F)c2ccccc12)Nc1ccccc1F	-0.21
CC(C)(C)C(=O)NC1COCC1Cc1ccnc2ccccc12 (stereo not given)	-2.16

Next part, overlapping the part above by 3 compounds.
SMILES	fixLJ activator
COc1cc(-c2cc(NC(C)C)ncn2)cc(OC)c1OC	0.05
O=C(CSc1cn(CCNC(=O)c2ccccc2F)c2ccccc12)Nc1ccccc1F	-0.21
CC(C)(C)C(=O)NC1COCC1Cc1ccnc2ccccc12 (stereo not given)	-2.16
COC(=O)C1=C(CS(=O)(=O)c2ccc(C)cc2C)NC(=O)NC1c1ccc(C)cc1 (stereo not given)	-1.29
CCN(CC)c1cc(NC2CCCCC2)c2c3c(onc13)-c1ccccc1C2=O	-0.95
CCCCCn1c(=O)[nH]c2cc(C(=O)N3CCN(c4cccc(Cl)c4)CC3)ccc2c1=O	1.03
O=C(NCCc1cccs1)c1ccc(Cn2c(SCc3ccc(F)cc3)nc3cccnc32)cc1	-0.67
Cc1ccc(N(CC(=O)N2CCN(c3ccccc3F)CC2)S(=O)(=O)c2c(C)noc2C)cc1	0.22
CN(C)CC1CC(CO)CN(C(=O)Cc2cc3c(cc2Cl)OCCO3)C1 (stereo not given)	0.17
CCc1ccc(-n2c(=O)c3ccc(C(=O)NCCc4ccccc4)cc3n(Cc3ccccc3C#N)c2=O)cc1	0.44
COc1ccc(Cn2nc(C(=O)O)c3c2CCN(C(=O)c2ccncc2)C3)cc1	-1.9
COc1ccc(N(C(=O)COc2c(C)cccc2C)S(=O)(=O)c2ccc(Cl)cc2)cc1	0.88
COc1ccc(S(=O)(=O)NCc2nnc3n2CCC3)cc1Cl	-0.7
CCC1CCCCN1CCCNC(=O)c1ccc2c(c1)N(Cc1ccccc1F)C(=O)c1ccccc1S2(=O)=O (stereo not given)	-0.67
Cc1ccc(-c2cc3ncc4c(n3n2)-c2cc(C)ccc2OC4)cc1	-0.2
O=C(C1CC1)N1CCc2cc(Br)cc(S(=O)(=O)N3CCN(c4ccccc4F)CC3)c21	-1.07
CCCCN(C)CC(O)Cn1cc(/C=C/C(=O)c2ccc(C)cc2)c2ccccc21 (stereo not given)	-7.27
CN(C)c1ccc(/C=C(\C#N)c2nc(-c3ccc(Cl)c(Cl)c3)cs2)cc1	0.4
CN(CC=Cc1ccccc1)C(=O)Cn1nccc1C1CCCNC1 (stereo not given)	-0.48
COc1cccc(N2CCN(C(=O)C3CCCN(S(=O)(=O)c4ccc5c(c4)oc(=O)n5C)C3)CC2)c1 (stereo not given)	-1.59
COc1cccc(-c2ccc(C(=O)NCCCNc3ccc(C)cn3)o2)c1	-2.13
CN(C(=O)c1cc(-c2ccccc2O)on1)c1ccccc1	-2.7
Cc1ccc2c(c1)c(=O)c1ccccc1n2CCCC(=O)Nc1cc(Cl)ccc1C	0.69
N[C@@H](C(=O)N[C@@H]1C(=O)N2C(C(=O)O)=C(Cl)CS[C@H]12)c1ccccc1	0.01
CSc1ncc(Cl)c(C(=O)Nc2c(C(=O)c3ccc(Cl)cc3)oc3ccccc23)n1	-0.94
O=C(Nc1ccc(C(F)(F)F)cc1)N1CCC(N2CCCCC2)CC1	0.9
Cc1cc(C)n2nc(CNC(=O)c3cccc(Cl)c3)nc2n1	0.06
Cn1c(=O)c(=O)n(C)c2cc(NC(=O)c3ccccc3Br)ccc21	-0.05

Further structures.
SMILES	fixLJ activator
CN(C)C1CC(CO)N(C(=O)CCN2CCCCCC2=O)C1 (stereo not given)	-1.71
Cn1nc(-c2ccc(OCC(=O)Nc3ccc(Cl)cc3)cc2)c2ccccc2c1=O	-0.61
COc1cccc2c1C1(CCN(C(=O)CCC(C)N3CCOCC3)CC1)OCC2 (stereo not given)	-1.67
COc1c(Cl)cc(C(=O)N(Cc2ccccc2F)C2CCS(=O)(=O)C2)cc1Cl (stereo not given)	-0.89
Cc1noc(C)c1CC(=O)N(C)Cc1cc2cc(F)ccc2[nH]1	0.69
CN1CCN(C(=O)c2cc(C3CC3)on2)C2CS(=O)(=O)CC21 (stereo not given)	-0.16
Cc1noc(C)c1-c1ccc(S(=O)(=O)N2CCC(CN)C2)s1 (stereo not given)	-0.61
CCOC(=O)c1cnc2ccc(C(=O)OC)cc2c1Nc1ccc(OCc2ccccc2Cl)cc1	-0.53
CC1=C(C(=O)OCC2CCCCC2)C(c2cccc(Cl)c2Cl)CC(=O)N1 (stereo not given)	-0.55
COc1ccc(CCCc2nnc(SCC(=O)Nc3ccc(C)c(C)c3)o2)cc1	-0.81
CCOc1ccc(CNCc2c(C(=O)O)c(C)n(Cc3cccc(OC)c3)c2C)cc1OC	-2.62
CCn1cc(C(=O)N2CCN(c3cc(C)ccc3C)CC2)c(=O)c2cc(S(=O)(=O)N(C)C3CCCCC3)ccc21	0.08
O=C1CCCCN1CCC(=O)N1CCC(c2ccc3ccccc3c2)C(O)C1 (stereo not given)	-0.98
COc1cc2c(cc1OC)C(c1ccc(Cl)cc1)N(c1ccc(C)c(F)c1)C(=O)C2 (stereo not given)	-1.15
Cc1ccc(-c2nnn3c2nc(NC2CCC(C)CC2)c2ccccc23)cc1 (stereo not given)	-0.26
Cc1nn(-c2ccccc2)c2c1cc1c(=O)n(C)c(=O)nc-1n2-c1cccc(Cl)c1	-2.41
COc1ccccc1-c1nnc(C2CCN(S(=O)(=O)c3ccc(CC(C)C)cc3)CC2)o1	-0.22
CCCN1C(=O)C2(c3ccccc31)c1c(oc3ccc(C)cc3c1=O)C(=O)N2CCOC (stereo not given)	-0.05
O=C(NCc1ccc2nsnc2c1)c1ccc(-c2cnco2)cc1	-3.86
CCc1ccc2nc(C)cc(C(=O)NCCCN3CCOCC3)c2c1	0.31
c1ccc(-c2ccc(C(c3ccccc3)n3ccnc3)cc2)cc1 (stereo not given)	-0.4&-1.52
Cc1cccn2c(=O)c(C(=O)NCCc3ccc(S(N)(=O)=O)cc3)c(O)nc12	0.33
Cc1nc2nncn2c(N2CCN(c3ccccc3)CC2)c1C	0.33
CCc1ccc(CN(Cc2ccco2)C(=O)COc2ccc(Cl)cc2C)cc1	1.34
Cc1ccc(OC2CCN(C(=O)c3cnn4ccn(C)c34)CC2)cc1	-2.03

(further entries)
SMILES	fixLJ activator
COC(=O)c1cccnc1-n1c(=O)c2cccnc2n(CC(=O)Nc2ccccc2F)c1=O	-0.89
COCCCOc1ccnc(CS(=O)c2nc3ccccc3[nH]2)c1C (stereo not given)	-1.72
COc1ccc2nc(CCN(C)CC(=O)NCc3ccccc3F)[nH]c2c1	-0.88
CCC(C)n1c(=N)c(C(=O)NC2CCCC2)cc2c(=O)n3ccccc3nc21 (stereo not given)	-2.29
CCc1noc(CN(CC)C(=O)c2cn(Cc3ccc(F)cc3)nn2)n1	-1.2
Cc1nn(-c2ccccc2)c2sc(C(=O)Nc3cccc(O)c3)cc12	-0.82
CN(C)C(=O)c1ccc(CNC(=O)N2CCC(C#N)(c3ccccc3)CC2)o1	0.71
Cc1ccc(CNc2nc3c(S(=O)(=O)c4ccc(C)c(C)c4)nnn3c3ccc(Cl)cc23)cc1	0.06
Cc1ccccc1-c1nnc(SCC(=O)N2CCCc3ccccc32)o1	-0.22
CCCCN(CC)CCNc1ncnc2onc(-c3ccc(Cl)cc3)c12	-1.6
CCc1nn(CC(=O)NCCc2ccc(SC)cc2)c(=O)c2cc3sccc3n12	-0.29
COc1ccc2oc(-c3ccc(C)c(NC(=O)c4ccc(N5CCCCC5)c([N+](=O)[O-])c4)c3)nc2c1	-2
CCOc1ccc(OCCOCCn2c(-c3ccc(Cl)cc3)nc3ccccc3c2=O)cc1	-0.37
CC(CO)(CO)NC(=O)c1ccc(-c2cccc(N)n2)cc1	0.08
CN(Cc1ccc2nsnc2c1)C(=O)NCCCc1cnn(C)c1	-0.45
Nc1cc(C(Cl)=C(Cl)Cl)c(S(N)(=O)=O)cc1S(N)(=O)=O	-0.35
CN(C(=O)c1oc(=O)c2ccccc2c1-c1ccccc1)c1cccc(Cl)c1	-0.68
COc1ccc(Cn2c(CCC(=O)Nc3ccccc3OC)nc3cccnc32)cc1	1.83
Cc1ccc(NC(=O)CSc2ncc(S(=O)(=O)c3ccc(C(C)C)cc3)c(=O)[nH]2)cc1C	-1.1
O=C(CCN1CCCCC1=O)NC1COCC1Cc1ccncc1 (stereo not given)	0.65
CCc1nn(CC(=O)N2CCN(c3cccc(C(F)(F)F)c3)CC2)c(=O)c2cc3occc3n12	-0.48
Cc1ccc(-n2nc3ccc(NC(=O)COc4ccccc4)cc3n2)cc1Cl	-0.67
COc1ccc(NC(=O)C(Cc2ccccc2)n2cccc2)cc1OC (stereo not given)	-1.93
O=C(Nc1ccc(Cl)c(C(F)(F)F)c1)C(Cc1ccccc1)NS(=O)(=O)c1cccc2nsnc12 (stereo not given)	0.03
COc1ccc2cc(C(=O)N(C)Cc3nc4ccccc4c(=O)[nH]3)n(C)c2c1	0.1

Another view of some results above:
Cc1ccc2c(c1)c(=O)c1ccccc1n2CCCC(=O)Nc1cc(Cl)ccc1C
- fixLJ activator: 0.69

N[C@@H](C(=O)N[C@@H]1C(=O)N2C(C(=O)O)=C(Cl)CS[C@H]12)c1ccccc1
- fixLJ activator: 0.01

CSc1ncc(Cl)c(C(=O)Nc2c(C(=O)c3ccc(Cl)cc3)oc3ccccc23)n1
- fixLJ activator: -0.94

Next section:
SMILES	fixLJ activator
CCOc1ccc2nc(S(N)(=O)=O)sc2c1	0.31
COc1cc(OC)c(NC(=O)C2CCN(S(=O)(=O)c3ccc4c(c3)oc(=O)n4C)CC2)cc1Cl	-1.88
Cc1ccc(Nc2nc3ccccc3c3nncn23)cc1C	0.77
CCCSc1ncc(Cl)c(C(=O)Nc2ccc(S(=O)(=O)N3CCCCC3C)cc2)n1 (stereo not given)	-0.1
CCc1nc(CN2CCC(O)[C@]3(CCCN(C(=O)CSC)C3)C2)cs1 (stereo not given in full)	0.04
CNCCC(Oc1ccccc1OC)c1ccccc1 (stereo not given)	-0.75
CCOCCCNC(=O)c1cn(CC)c2ccc(S(=O)(=O)N3CCOCC3)cc2c1=O	-1.41
C#CCn1c(=O)n(-c2cccc(Cl)c2C)c(=O)c2c3c(sc21)CN(C(C)=O)CC3	-0.25
CCOC(=O)c1c(-c2ccccc2)csc1NC(=O)c1nc(SCC)ncc1Cl	-0.15
Cc1ccc2nc(-c3ccc(Cl)c(NC(=O)c4cccnc4)c3)oc2c1	-0.85
CCOc1ccccc1NC(=O)c1ccc(C(=O)Nc2ccccc2OCC)cc1	0.25
CCNC(=O)CCN1CCC2(CC1)CC(c1ccccc1)C(=O)N(CC)C2 (stereo not given)	-0.07
